# RE007 growth inh – less growth of the S. pombe RE007 Vpr strain | S. pombe RE007 Vpr strain, BacTiter-Glo ATP luminescence, 24 h; control for the full effect not named in the record | Potency, µM (highest dose often 92.2 µM), without a hit: at the top dose activity change, negative = less growth | hit rate 0.21% among 360,000; active = well fitted falling curve with a large enough effect; inconclusive = small, poorly fitted or top-dose-only effect; inactive = no such curve, though single readings can be large or run the other way;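 also: % is scaled to controls: 0 for no effect and ±100 for the full control effect; nearly all actives have a fitted effect of over 50% in size; the assay follows cell death caused by Vpr and the record does not say whether a fall means rescue or toxicity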
#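 Fission yeast strain RE007, carrying one chromosomally integrated HIV-1 vpr copy, was seeded at OD 0.01 in PMG+AL medium with 23 nL pinned compound. After 24 h at 30 °C and 99% humidity, viability was read by BacTiter-Glo luminescence.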
# Cruzain inh noDet – cruzain (T. cruzi) inhibition without detergent | P25779 | purified cruzain, Z-FR-AMC fluorescence, no detergent | Potency, µM, for inactives: max response, negative = inhibition, actives largely listed as inhibitors | hit rate 2.3% among 200,000;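 also: plate controls were enzyme without inhibitor for no effect and buffer without enzyme for full effect; nearly all actives have a fitted effect of over 40% in size; top concentration of the series not given in the record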
# Target sequence (P25779 123-467 limits assumed): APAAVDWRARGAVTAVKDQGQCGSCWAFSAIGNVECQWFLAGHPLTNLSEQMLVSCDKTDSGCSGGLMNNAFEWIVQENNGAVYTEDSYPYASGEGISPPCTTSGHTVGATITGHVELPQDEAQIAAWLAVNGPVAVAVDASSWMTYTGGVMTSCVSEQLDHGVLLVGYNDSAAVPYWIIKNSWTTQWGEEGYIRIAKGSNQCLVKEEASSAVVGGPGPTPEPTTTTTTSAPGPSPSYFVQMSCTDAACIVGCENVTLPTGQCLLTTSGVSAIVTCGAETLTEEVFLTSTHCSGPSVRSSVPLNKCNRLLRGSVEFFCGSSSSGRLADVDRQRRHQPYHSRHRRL
#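 Detergent-free condition (0.00005% Triton X-100) in acetate buffer pH 5.5 with DTT. 1.5 nM enzyme and compound were pre-mixed 15 min, then 2 uM Z-FR-AMC substrate added; reaction progress from fluorescence change between first and third reads (60 s).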
# Cruzain inh Det – inhibitors of Trypanosoma cruzi cruzain with detergent; Potency, µM, for inactives: max response, negative = inhibition, actives largely listed as inhibitors; P25779; hit rate 0.43% among 200,000; AID 1478; purified cruzain, Z-FR-AMC fluorescence, 0.01% Triton;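 also: plate controls were neutral wells for no effect and buffer without enzyme for full effect; nearly all actives have a fitted effect of over 40% in size; top concentration of the series not given in the record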
#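 Detergent-containing arm of a paired screen for aggregation-based inhibition: 0.01% Triton X-100 present. Cruzain at 1.5 nM cleaved 2 uM Z-FR-AMC at pH 5.5 with 5 mM DTT; AMC fluorescence gain over 60 s measured activity.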
# LASV entry inh – inhibitors of Lassa virus binding or cell entry; hit rate 1.2% among 300,000; Lassa virus pseudotype entry inhibition, cell reporter; control for the full effect not named in the record; Potency, µM (titrated, usually from 37.9 µM), for the others: top-dose activity change, negative = inhibition, actives largely listed as inhibitors; active means well fitted inhibition curve with a large enough effect; inconclusive means small, poorly fitted or top-dose-only effect, or effect the other way; inactive means flat fitted curve, though single readings scatter; tested in HEK293 cells; also: % is scaled to controls: 0 for no effect and ±100 for the full control effect; nearly all actives have a fitted effect of over 50% in size; luciferase read-out
# SARS PLP yeast – inhibitors of SARS-CoV papain-like protease in yeast | AID 485353 | hit rate 0.19% among 330,000 | Potency, µM (series often up to 32.9 µM), for the others: top-dose activity, positive = growth rescue | S. cerevisiae expressing SARS-CoV PLpro, growth rescue; control for the full effect not named in the record; active means well fitted rising curve with a large enough effect; inconclusive means small, poorly fitted or top-dose-only effect; inactive means no such curve, though single readings can be large or run the other way; also: 0% is about no effect; nearly all actives have a fitted effect of over 55% in size; growth read by luminescence after 48 h
# NS1 inh – influenza NS1 inhibition; Potency, µM (highest dose often 46.1 µM), inactives show at the top dose activity, positive = more growth; S. cerevisiae slowed by influenza A NS1, growth recovery by OD600; hit rate 0.4% among 270,000; active means well fitted rising curve with a large enough effect; inconclusive means small, poorly fitted or top-dose-only effect; inactive means no such curve, though single readings can be large or run the other way; also: nearly all actives have a fitted effect of over 50% in size
#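 In this qHTS, NS1 from influenza A is expressed in budding yeast, where it slows growth. Cells are switched from glucose to 2% galactose medium (pH 6.0, -URA), treated with compound, and growth recovery is read at OD600.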
# StopGo reporter – FMDV 2A StopGo reporter, luciferase signal | hit rate 1.2% among 410,000 | Potency, µM (series often up to 57.9 µM), for inactives: at the highest dose signal change, negative = less light | human cells with a luciferase reporter of 2A StopGo recoding; control for the full effect not named in the record | AID 1159524; active = well fitted falling curve with a large enough effect; inconclusive = small, poorly fitted or top-dose-only effect; inactive = no such curve, though single readings can be large or run the other way; tested in HEK293T cells; also: % is scaled to controls: 0 for no effect and ±100 for the full control effect; nearly all actives have a fitted effect of over 45% in size; luciferase light after 4 h
# MARV entry inh – blocks Marburg virus binding to or entry into cells | Potency, µM (top dose mostly 37.8 µM), without a hit: top-dose activity change, negative = inhibition, most hits filed as inhibitors | Marburg virus pseudotyped entry inhibition, cell reporter; control for the full effect not named in the record; about a third of the inactives were read at about 46 µM | hit rate 1.8% among 300,000; active = well fitted inhibition curve with a large enough effect; inconclusive = small, poorly fitted or top-dose-only effect, or effect the other way; inactive = flat fitted curve, though single readings scatter; tested in HEK293 cells; about a fifth of its hits are not listed in these tables; also: % is scaled to controls: 0 for no effect and ±100 for the full control effect; luciferase read-out
# * marks the source's active call; other numbers are inactive results; u = inconclusive; x = no result given; & = joins results of further samples; [ ] = remark or other dose. Unless noted, calls follow the shape of the dose curve; as a rule, active = well fitted curve in the direction sought with a large enough effect; inconclusive = small, poorly fitted or top-dose-only effect, or another doubt; inactive = no such curve, though single readings can be large; an effect the other way counts as inactive or inconclusive. Potency is read from the fitted curve at half-maximal effect.
SMILES,RE007 growth inh,Cruzain inh noDet,Cruzain inh Det,LASV entry inh,SARS PLP yeast,NS1 inh,StopGo reporter,MARV entry inh
Cc1nn(C(=O)c2cccnc2)c(C)c1Sc1ccc(Br)cc1,-10%,-7%,-4.6%,4%,12%,-65%,-19%,-11%
CC(C)(C)c1cc(CN2CCCCC2)cc(C(C)(C)C)c1O,x,4%,8.9%,x,1%,5%,x,0%
Cc1ccc2[nH]c(C(=O)N3CCN(C(c4ccccc4)c4ccccc4)CC3)cc2c1,-11%,x,x,u,-4%,8%,-4%,-9%
CC(NC(=O)c1ccco1)C(=O)Nc1nc(-c2ccccn2)cs1 (stereo not drawn),10%,12%,0.3%,-1%,u,5%,-7%,-6%
COc1cc2nncc(SC)c2cc1OC,30%,x,x,-2%[46.1 µM],x,x,-15%,u
N#CCCn1c(SCC(=O)NCc2ccco2)nc2ccccc21,-10%,6%,-5.9%,9%,13%[6.58 µM],2%,-15%,-21%
CCOC(=O)c1[nH]c(=O)[nH]c1CN(Cc1ccco1)Cc1[nH]c(=O)[nH]c1C(=O)OCC,-11%,x,x,23%[46.1 µM],3%,4%,0%,2%[46.1 µM]
COc1ccc(C(=O)N2CCOC2CNC(=O)C(=O)NCc2ccc(Cl)cc2)cc1 (stereo not drawn),16%,x,x,-16%,0%,x,-19%,1%[46.1 µM]
CC1CCCCC1NC(=O)/C=C/c1nc2ccccc2s1 (stereo not drawn),-5%,x,x,7%[46.1 µM],-4%,-20%,34%[activator],2%[46.1 µM]
O=C(Nc1cccn2ncnc12)c1ccccc1,3%,-2%,1.6%,4%,2%,1%,39%[activator],1%
CCOC(=O)c1cnc2c(C)cccc2c1NCCCN1CCOCC1,-5%,x,x,26%[46.1 µM],0%,-5%,-7%,u
O=C(CCNC(=O)c1ccc(Cl)cc1)NNC(=O)c1ccc(F)cc1,-10%,x,x,19%,-7%,x,-26%,3%
NC(N)=N/N=C/c1cc([N+](=O)[O-])ccc1O,-27%,-5%,-6.0%,21%,u,-11%,-8%,u
CCn1c(=O)cc(OCC(=O)Nc2ccc(C)c(F)c2)c2ccccc21,x,-4%,0.5%,19%[46.1 µM],x,x,-10%,-3%[46.1 µM]
Cn1cnnc1SCC(=O)c1c[nH]c2ccccc12,1%,-11%,3.2%,-3%,5%,0%,65%[activator],u
COc1ccc(CN2CCCCC2C)c(C)c1C (stereo not drawn),-2%,13%,1.0%,4%,0%,-2%,-16%,u
O=C(COC(=O)c1cccc(NC(=O)c2ccco2)c1)c1ccc(Br)cc1,-9%[3.69 µM],-3%,-2.7%,-24%,-4%,-17%,u,-17%
O=C(NCc1ccco1)c1csc2c1CCCC2,-29%,x,x,8%,-2%,-9%,16%,0%[46.1 µM]
CCOCCCN(C(=O)c1ccco1)C(C(=O)NC1CCCC1)c1cccc(OC)c1OC (stereo not drawn),-1%,6%,-4.8%,17%,-4%,-4%,-6%,-1%
COCC(C)N1CCC(Oc2cccc(C(=O)NCCc3ccccc3)c2)CC1 (stereo not drawn),0%,x,x,x,13%,20%,53%[activator],x
O=S(=O)(NCCc1csc(-c2ccc(C(F)(F)F)cc2)n1)c1ccc2c(c1)OCCO2,1%,7%,-13%,x,-19%,-10%,6%,x
C/C(=N/NC(=O)c1cc(-c2cccc([N+](=O)[O-])c2)n[nH]1)c1ccc(Cl)cc1,11%,6.3µM*,0.0%,6%,-14%,9%,-15%,18%
CCC(C)(C)NC(=O)C(c1cccc(OC)c1OC)N(Cc1ccc(OC)cc1)C(=O)CCC(=O)Nc1cc(C)on1 (stereo not drawn),-7%,x,x,-14%[46.1 µM],-1%,-7%,8%,u
CCCCc1ccc(NC(=O)CSc2nc(=O)n(CCN(CC)CC)c3c2CCC3)cc1,-17%,x,x,u,-3%,x,-25%,u

# In a second layout: entries from further up.
# Below each SMILES: RE007 growth inh | Cruzain inh noDet | Cruzain inh Det | LASV entry inh | SARS PLP yeast | NS1 inh | StopGo reporter | MARV entry inh
- CCOC(=O)c1cnc2c(C)cccc2c1NCCCN1CCOCC1
    -5% | x | x | 26%[46.1 µM] | 0% | -5% | -7% | u
- CCOC(=O)c1[nH]c(=O)[nH]c1CN(Cc1ccco1)Cc1[nH]c(=O)[nH]c1C(=O)OCC
    -11% | x | x | 23%[46.1 µM] | 3% | 4% | 0% | 2%[46.1 µM]

# (list continues)
SMILES,RE007 growth inh,Cruzain inh noDet,Cruzain inh Det,LASV entry inh,SARS PLP yeast,NS1 inh,StopGo reporter,MARV entry inh
COc1cc(NC(=O)c2csc(N)n2)cc(C(=O)Nc2cccc(C(F)(F)F)c2)c1,-3%&5%,x,x,x,-15%,u,25µM*,x
COc1cccc(N/C(C)=C/C(=O)c2ccc(Br)cc2)c1,-4%,9%,-4.2%,u,-25%,-5%,25%,8%
CCCOC(=O)c1c(NC(=O)c2cc3ccccc3c(=O)o2)sc2c1CCC(C)C2 (stereo not drawn),x,0%,-1.8%,19%[46.1 µM],x,x,0%,u
Cc1ccc(C2=NN(CCC(=O)NCCC(C)C)C(=O)CC2)cc1,x,14%,-0.3%,-17%,25%,2%,x,-1%
Cc1ccc2nc(SCc3nc4cc(Cl)ccc4c(=O)[nH]3)[nH]c2c1,6%,x,x,1%,-2%,x,-23%,-10%[46.1 µM]
COc1ccc(-c2nn3c(-c4ccc(F)cc4)nnc3s2)cc1,6%,u,2.1%,u,-7%,-3%,-13%,7%
COc1ccccc1CN1CC(C(=O)NCc2cnn(C)c2)CCC1=O (stereo not drawn),4%,x,x,-6%,-1%,11%,-6%,u
CCOC(=O)c1cc2c(=O)n3cccc(C)c3nc2n(CC2CCCO2)c1=NC(C)=O (stereo not drawn),-9%&0%,x,x,2%[46.1 µM],x,4%,-5%&-14%,-1%[46.1 µM]
Cc1ccc(S(=O)(=O)CC(C)N2CCN(C3CCCCC3)CC2)cc1 (stereo not drawn),-6%,3%,-1.2%,2%,9%,-32%,9%,u
CCC(=O)c1cc2c(C)cc(=O)oc2c(C)c1OC(C)=O,8%,-3%,-2.4%,-10%,-36%,-5%,-25%,2%
CC(C)Cn1c(-c2ccc(Br)o2)n[nH]c1=S,-2%,-5%,-1.9%,-1%,21%,-24%,-7%,1%
O=C(COc1ccc2c(-c3ccccc3)cc(=O)oc2c1)NCc1cccs1,0%,4%,-11%,-1%,u,7%,-5%,u

# 2 entries drawn at random from the list so far, as already listed:
SMILES,RE007 growth inh,Cruzain inh noDet,Cruzain inh Det,LASV entry inh,SARS PLP yeast,NS1 inh,StopGo reporter,MARV entry inh
COc1ccccc1CN1CC(C(=O)NCc2cnn(C)c2)CCC1=O (stereo not drawn),4%,x,x,-6%,-1%,11%,-6%,u
CC(C)Cn1c(-c2ccc(Br)o2)n[nH]c1=S,-2%,-5%,-1.9%,-1%,21%,-24%,-7%,1%

# Next compounds follow:
SMILES,RE007 growth inh,Cruzain inh noDet,Cruzain inh Det,LASV entry inh,SARS PLP yeast,NS1 inh,StopGo reporter,MARV entry inh
Cc1cc(C)c(/C([O-])=C(/C(=S)Nc2ccc(SC(F)F)cc2)[n+]2ccccc2)cc1C,11%,x,x,-19%[46.1 µM],1%,x,0%,u
COc1ccc(OC)c(C(c2nnnn2Cc2ccccc2)N2CCC(C(N)=O)CC2)c1 (stereo not drawn),-17%,2%,4.7%,-22%,7%,-4%,8%,-17%
Cc1ccc(C(=O)NC2CC(C)(C)NC(C)(C)C2)cc1Cl,-5%,x,x,18%[46.1 µM],0%,-1%,-5%,u
Cc1c(C(=O)N2CCCC2)c(S(=O)(=O)Nc2ccccc2Cl)c(C)n1C,5%,x,x,29%[46.1 µM],-2%,6%,24%,u
O=C(C1CCCN(Cc2ccccc2[N+](=O)[O-])C1)N1CCCC1 (stereo not drawn),-16%,x,x,5%,0%,1%,5%,-4%
CCOC(=O)/C(C#N)=C\C1=C(N2CCOCC2)CC(C)(C)OC1,24%,x,x,x,-3%,x,-2%,5%[46.1 µM]
CNC(=O)COc1ccc(C=O)cc1OC,2%,1%,3.6%,4%,5%,-5%,-6%,u
N/C(=N\OC(=O)Nc1ccccc1)c1ccno1,-9%,x,x,15%,-3%,1%,44%[activator],u
COc1ccc(OCC(=O)C2CC2)c(C#N)c1,-3%,x,x,x,0%,-4%,28%,x
CC1(/[N+]([O-])=C/c2cccc(Cl)c2)CCCCC1=O (stereo not drawn),15%,x,x,x,0%,2%,-4%,x
COc1ccc(C)cc1S(=O)(=O)N1CCCC(C(=O)N2CCN(c3ccccc3F)CC2)C1 (stereo not drawn),-28%,x,x,u,-4%,-5%,u,u
COc1cccc(N2CCN(S(=O)(=O)c3ccc4c(c3)N(C(C)=O)CCO4)CC2)c1,0%,x,x,-10%[46.1 µM],u,12%,-27%,-23%[46.1 µM]
CCOc1ccc(CCNC(=O)COC(=O)Cn2cnc3ccccc3c2=O)cc1OCC,-3%,x,x,8%[46.1 µM],-1%,x,-6%,-14%[46.1 µM]
O=[N+]([O-])c1ccc(N2CCN(S(=O)(=O)c3ccccc3)CC2)c2cccnc12,6%,x,x,-13%,13%,-7%,u,12%[14.2 µM]
CSc1ccc(CNC(=O)c2ccc(NC(=O)c3nsc4ccccc34)cc2)cc1,x,u,-0.6%,6%[46.1 µM],x,x,-5%,x
COc1ccc(S(=O)(=O)Nc2cc3c(cc2NCc2ccccc2)n(C)c(=O)n3C)cc1,x,12%,-11%,1%[46.1 µM],x,x,42%[activator],23%[46.1 µM]
CCn1c(CCNC(=O)c2ccccc2Cl)n[nH]c1=S,24%,6%,4.4%,15%,6%,6%,-2%,8%
Cn1cc(S(=O)(=O)N2CCCCC2)cc1C(=O)NCc1ccc(Cl)cc1,x,u,10µM*,-8%[46.1 µM],x,x,-9%,x
COc1ccc(NC(=O)CSCC(=O)Nc2nnc(C)s2)cc1,10%,x,x,13%,7%,x,-23%,-2%
CCOC(=O)c1ccccc1NC(=O)CN1CCC(n2nnc3cc(C(F)(F)F)ccc32)CC1,8%,x,x,2%,1%,u,u,-2%[46.1 µM]
Cc1cc(C)cc(N(CC(=O)N2CCN(Cc3ccccc3)CC2)S(=O)(=O)c2c(C)noc2C)c1,0%,u,-2.5%,x,-8%,-54%,u,x

# Screening data from PubChem.
